Env fusion inh: inhibitors of HIV-1 Env-driven cell-cell fusion, primary screen, HeLa-JRFL effector, CEM21 target cells, luciferase; AID 651610, 2012; inhibition, % at 12.3 µM; hit rate 1.1% among 360,000;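 active = mean replicate inhibition score of at least 50 and every replicate individually at or above 50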;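 also: 0% = plate neutral controls and 100% = maraviroc near 300 nM; one replicate is shown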
UUG fidelity: modulators of yeast start codon fidelity, primary screen, whole organism, S. cerevisiae, single point, plate reader; S. cerevisiae UUG-firefly luciferase reporter, luminescence/redox ratio; hit rate 0.13% among 350,000; activity score, % at 18.7 µM;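 active = replicate mean at a twofold rise or more, about +100% in these data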;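 also: firefly luciferase made from a UUG start codon reports start codon fidelity; reporter light over untreated wells divided by growth signal over untreated wells; some hits fall short of that in this replicate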
* = called active by the depositor; [ ] = another dose, or the depositor's remark. The list is partial; count on the stated rates, not on these rows.

How did CO[C@@H]1CN(C)C(=O)c2cc(NC(C)=O)ccc2OC[C@@H](C)N(Cc2nccs2)C[C@H]1C do in these assays?
Env fusion inh: -6.3[16.7 µM]; UUG fidelity: -3.0

Results for C[C@@H]1CN([C@@H](C)CO)C(=O)Cc2cc(NC(=O)CCN3CCOCC3)ccc2O[C@@H]1CN(C)CC1CCCCC1 ?
Env fusion inh: -9.3[16.7 µM]; UUG fidelity: -1.5

Results for C[C@@H]1CN([C@H](C)CO)C(=O)c2cc(-c3ccc(C#N)cc3)cnc2O[C@H]1CN(C)C(=O)c1cccnc1 ?
Env fusion inh: -20.5[16.7 µM]; UUG fidelity: -8.6

How did C[C@@H]1CN([C@H](C)CO)C(=O)Cc2cc(NC(=O)Nc3ccc4c(c3)OCO4)ccc2O[C@H]1CN(C)C(=O)Nc1ccccc1 do in these assays?
Env fusion inh: -3.0[16.7 µM]; UUG fidelity: 8.5

How did C[C@@H]1CN([C@@H](C)CO)C(=O)c2cccc(NS(=O)(=O)c3ccc(F)cc3)c2O[C@@H]1CN(C)S(C)(=O)=O do in these assays?
Env fusion inh: -12.8[16.7 µM]; UUG fidelity: -6.1

What do the screens show for `C[C@H](CO)N1C[C@H](C)[C@H](CN(C)Cc2ccncc2)Oc2ccc(NC(=O)Nc3ccc(F)cc3)cc2C1=O`?
Env fusion inh: 5.4[16.7 µM]; UUG fidelity: -8.2

What do the screens show for `C[C@H](CO)N1C[C@H](C)[C@@H](CN(C)C(=O)c2ccccn2)Oc2ncc(C3=CCCCC3)cc2C1=O`?
Env fusion inh: 2.2[16.7 µM]; UUG fidelity: -7.6

How did COCC#Cc1cnc2c(c1)C(=O)N([C@@H](C)CO)C[C@@H](C)[C@@H](CN(C)C(C)=O)O2 do in these assays?
Env fusion inh: -10.1[16.7 µM]; UUG fidelity: -4.8

Results for COc1ccc(NC(=O)Nc2ccc3c(c2)C(=O)N([C@@H](C)CO)C[C@H](C)[C@H](CN(C)Cc2ccc4c(c2)OCO4)O3)cc1 ?
Env fusion inh: 10.0[16.7 µM]; UUG fidelity: -2.1

What do the screens show for `COc1ccccc1S(=O)(=O)N[C@H]1CC[C@H](CCNC(=O)C2CCCCC2)O[C@@H]1CO`?
Env fusion inh: 5.8[16.7 µM]; UUG fidelity: 11.5

What do the screens show for `C[C@H](CO)N1C[C@H](C)[C@H](CN(C)C(=O)c2ccccn2)Oc2ncc(-c3ccccc3F)cc2C1=O`?
Env fusion inh: 1.9[16.7 µM]; UUG fidelity: 9.7

What do the screens show for `COCC#Cc1cnc2c(c1)C(=O)N([C@H](C)CO)C[C@H](C)[C@H](CN(C)C(=O)CCN1CCCCC1)O2`?
Env fusion inh: 4.4[16.7 µM]; UUG fidelity: 21.2

What do the screens show for `Cc1ccc(-c2cnc3c(c2)C(=O)N([C@@H](C)CO)C[C@H](C)[C@@H](CN(C)C(=O)Cc2cccnc2)O3)cc1`?
Env fusion inh: 25.3[16.7 µM]; UUG fidelity: -0.9

How did Cc1ccc(S(=O)(=O)N(C)C[C@H]2OCCCC[C@@H](C)Oc3ccc(NC(=O)Nc4ccccc4)cc3C(=O)N([C@H](C)CO)C[C@H]2C)cc1 do in these assays?
Env fusion inh: -8.1[16.7 µM]; UUG fidelity: -16.8

How did CNC[C@@H]1OCCCC[C@H](C)Oc2ccc(NS(C)(=O)=O)cc2C(=O)N([C@@H](C)CO)C[C@@H]1C do in these assays?
Env fusion inh: 23.9[16.7 µM]; UUG fidelity: 19.1

Results for C[C@H]1CN([C@@H](C)CO)C(=O)c2cccc(NC(=O)Nc3ccc(F)cc3)c2O[C@@H]1CN(C)Cc1ccc(-c2ccccc2)cc1 ?
Env fusion inh: 3.1[16.7 µM]; UUG fidelity: 1.4

What do the screens show for `O=C(C[C@H]1C[C@@H]2c3cc(NC(=O)CC4CC4)ccc3O[C@@H]2[C@H](CO)O1)NCc1ccccc1`?
Env fusion inh: -13.1[16.7 µM]; UUG fidelity: -9.1

Results for C[C@@H]1CN([C@@H](C)CO)C(=O)Cc2cc(NC(=O)CCN3CCOCC3)ccc2O[C@@H]1CN(C)S(=O)(=O)c1cn(C)cn1 ?
Env fusion inh: -41.7[16.7 µM]; UUG fidelity: 3.4

How did C[C@@H]1CN([C@@H](C)CO)C(=O)c2cccc(NC(=O)NC3CCCCC3)c2O[C@@H]1CN(C)Cc1ccc(Cl)c(Cl)c1 do in these assays?
Env fusion inh: -18.1[16.7 µM]; UUG fidelity: 5.1

What do the screens show for `Cc1noc(C)c1NC(=O)N(C)C[C@H]1Oc2c(NC(=O)NC(C)C)cccc2C(=O)N([C@H](C)CO)C[C@H]1C`?
Env fusion inh: 10.1[16.7 µM]; UUG fidelity: -12.9

How did C[C@H](CO)N1C[C@H](C)[C@@H](CN(C)C(=O)Cc2cccnc2)Oc2cc(-c3cncnc3)ccc2S1(=O)=O do in these assays?
Env fusion inh: 5.7[16.7 µM]; UUG fidelity: -22.2

How did CS(=O)(=O)Nc1ccc2c(c1)[C@@H]1C[C@H](CC(=O)NCc3ccc(Oc4ccccc4)cc3)O[C@H](CO)[C@@H]1O2 do in these assays?
Env fusion inh: 38.8[16.7 µM]; UUG fidelity: -16.5

What do the screens show for `COCC#Cc1ccc2c(c1)O[C@@H](CN(C)C(=O)C1CCOCC1)[C@H](C)CN([C@H](C)CO)S2(=O)=O`?
Env fusion inh: -19.2[16.7 µM]; UUG fidelity: 9.3

Results for COc1ccc(NC(=O)Nc2ccc3c(c2)CC(=O)N([C@H](C)CO)C[C@H](C)[C@H](CN(C)Cc2ccc(-c4ccccc4)cc2)O3)cc1 ?
Env fusion inh: 18.7[16.7 µM]; UUG fidelity: 1.7

How did CC(C)NC(=O)Nc1ccc2c(c1)C(=O)N([C@H](C)CO)C[C@H](C)[C@H](CN(C)C(=O)Nc1ccc(C(F)(F)F)cc1)O2 do in these assays?
Env fusion inh: -6.5[16.7 µM]; UUG fidelity: -4.2

What do the screens show for `C[C@@H]1CCCCO[C@H](CN(C)C(=O)Nc2ccc(F)cc2)[C@H](C)CN([C@H](C)CO)C(=O)c2cc(NC(=O)Nc3ccc(F)cc3)ccc2O1`?
Env fusion inh: 2.6[16.7 µM]; UUG fidelity: -5.8

Results for COc1ccc(S(=O)(=O)Nc2ccc3c(c2)C(=O)N([C@@H](C)CO)C[C@@H](C)[C@@H](CN(C)Cc2ccc4c(c2)OCO4)OCCCC[C@@H](C)O3)cc1 ?
Env fusion inh: 17.8[16.7 µM]; UUG fidelity: 13.7

What do the screens show for `CCCNC(=O)N(C)C[C@H]1Oc2ncc(C#Cc3ccccc3F)cc2C(=O)N([C@@H](C)CO)C[C@@H]1C`?
Env fusion inh: 13.3[16.7 µM]; UUG fidelity: -10.9

What do the screens show for `CCCc1cn(CC[C@H]2CC[C@H](NC(=O)CCN3CCCCC3)[C@@H](CO)O2)nn1`?
Env fusion inh: -1.0[16.7 µM]; UUG fidelity: -10.2

Results for Cc1ccc(S(=O)(=O)Nc2ccc3c(c2)C(=O)N([C@@H](C)CO)C[C@H](C)[C@@H](CN(C)C(=O)NC(C)C)OCCCC[C@H](C)O3)cc1 ?
Env fusion inh: -94.7[16.7 µM]; UUG fidelity: 43.2

Results for O=C(C[C@@H]1C[C@H]2c3cc(NS(=O)(=O)c4ccc(F)cc4)ccc3O[C@H]2[C@H](CO)O1)N1CCOCC1 ?
Env fusion inh: -1.9[16.7 µM]; UUG fidelity: -10.4

How did C[C@@H]1CCCCO[C@@H](CN(C)C(=O)c2ccccc2)[C@H](C)CN([C@@H](C)CO)C(=O)c2cc(NC(=O)Cc3ccccc3)ccc2O1 do in these assays?
Env fusion inh: -40.7[16.7 µM]; UUG fidelity: 66.0

Results for COc1ccc(NC(=O)Nc2ccc3c(c2)CC(=O)N([C@H](C)CO)C[C@H](C)[C@@H](CN(C)Cc2ccccc2)O3)cc1 ?
Env fusion inh: 6.0[16.7 µM]; UUG fidelity: -2.1

How did C[C@@H]1CN([C@@H](C)CO)C(=O)c2cc(C#CC3(O)CCCC3)cnc2O[C@@H]1CN(C)C do in these assays?
Env fusion inh: -0.8[16.7 µM]; UUG fidelity: -1.2

Results for C[C@@H]1CN([C@H](C)CO)C(=O)c2cc(NC(=O)Cc3ccccc3)ccc2O[C@@H](C)CCCCO[C@H]1CN(C)C(=O)c1ccccc1 ?
Env fusion inh: -3.2[16.7 µM]; UUG fidelity: 20.9

How did CC(C)NC(=O)Nc1ccc2c(c1)C(=O)N([C@@H](C)CO)C[C@@H](C)[C@H](CN(C)C(=O)Nc1cccc3ccccc13)OCCCC[C@H](C)O2 do in these assays?
Env fusion inh: 9.7[16.7 µM]; UUG fidelity: 4.5

What do the screens show for `C[C@H]1CN([C@@H](C)CO)C(=O)c2cccc(NC(=O)Nc3ccc4c(c3)OCO4)c2O[C@@H]1CN(C)S(C)(=O)=O`?
Env fusion inh: -6.6[16.7 µM]; UUG fidelity: -2.0

How did C[C@@H]1CN([C@@H](C)CO)C(=O)Cc2cc(NC(=O)NC3CCCCC3)ccc2O[C@H]1CN(C)Cc1ccncc1 do in these assays?
Env fusion inh: -19.3[16.7 µM]; UUG fidelity: -15.1

Results for Cc1cc(C(=O)Nc2ccc3c(c2)C(=O)N(C)[C@H]2CC[C@H](CC(=O)N[C@H](C)c4ccccc4)O[C@H]2CO3)no1 ?
Env fusion inh: 21.7[16.7 µM]; UUG fidelity: 10.5

How did CC(C)NC(=O)N(C)C[C@@H]1Oc2ccc(N(C)C)cc2C(=O)N([C@@H](C)CO)C[C@@H]1C do in these assays?
Env fusion inh: -1.1[16.7 µM]; UUG fidelity: -5.3

What do the screens show for `C[C@H]1CN([C@@H](C)CO)C(=O)c2cc(NC(=O)Nc3ccc(F)cc3)ccc2O[C@@H]1CN(C)C(=O)Nc1ccc(C(F)(F)F)cc1`?
Env fusion inh: 4.4[16.7 µM]; UUG fidelity: -14.9

How did O=C(C[C@H]1C[C@@H]2c3cc(NC(=O)CC4CC4)ccc3O[C@@H]2[C@H](CO)O1)NCc1cc(F)ccc1F do in these assays?
Env fusion inh: 22.0[16.7 µM]; UUG fidelity: -13.5

Results for CC(C)C(=O)Nc1ccc2c(c1)C(=O)N(C)[C@@H]1CC[C@@H](CC(=O)O)O[C@@H]1CO2 ?
Env fusion inh: -9.8[16.7 µM]; UUG fidelity: -3.1

What do the screens show for `COc1ccc(S(=O)(=O)Nc2ccc3c(c2)C(=O)N([C@@H](C)CO)C[C@@H](C)[C@@H](CN(C)CC2CCCCC2)OCCCC[C@H](C)O3)cc1`?
Env fusion inh: -38.0[16.7 µM]; UUG fidelity: 27.2

Results for Cc1noc(C)c1NC(=O)Nc1cccc2c1O[C@H](CN(C)Cc1ccc(C(F)(F)F)cc1)[C@@H](C)CN([C@H](C)CO)C2=O ?
Env fusion inh: -3.6[16.7 µM]; UUG fidelity: -5.6

What do the screens show for `C[C@@H]1CCCCO[C@@H](CN(C)C(=O)Cc2ccccc2)[C@H](C)CN([C@H](C)CO)C(=O)c2cc(NS(=O)(=O)c3cn(C)cn3)ccc2O1`?
Env fusion inh: 4.1[16.7 µM]; UUG fidelity: -9.6

Results for COc1ccc(NC(=O)Nc2ccc3c(c2)C(=O)N([C@H](C)CO)C[C@H](C)[C@@H](CN(C)C(=O)CCCN(C)C)OCCCC[C@H](C)O3)cc1 ?
Env fusion inh: 20.3[16.7 µM]; UUG fidelity: 8.5

What do the screens show for `C[C@H](CO)N1C[C@H](C)[C@H](CN(C)C(=O)CCC(F)(F)F)OCCCC[C@H](C)Oc2ccc(NC(=O)C3CCCCC3)cc2C1=O`?
Env fusion inh: -25.3[16.7 µM]; UUG fidelity: 30.7

Structures from the list above that contain a CF3 group:
How did CC(C)NC(=O)Nc1ccc2c(c1)C(=O)N([C@H](C)CO)C[C@H](C)[C@H](CN(C)C(=O)Nc1ccc(C(F)(F)F)cc1)O2 do in these assays?
Env fusion inh: -6.5[16.7 µM]; UUG fidelity: -4.2

What do the screens show for `C[C@H]1CN([C@@H](C)CO)C(=O)c2cc(NC(=O)Nc3ccc(F)cc3)ccc2O[C@@H]1CN(C)C(=O)Nc1ccc(C(F)(F)F)cc1`?
Env fusion inh: 4.4[16.7 µM]; UUG fidelity: -14.9

Results for Cc1noc(C)c1NC(=O)Nc1cccc2c1O[C@H](CN(C)Cc1ccc(C(F)(F)F)cc1)[C@@H](C)CN([C@H](C)CO)C2=O ?
Env fusion inh: -3.6[16.7 µM]; UUG fidelity: -5.6

What do the screens show for `C[C@H](CO)N1C[C@H](C)[C@H](CN(C)C(=O)CCC(F)(F)F)OCCCC[C@H](C)Oc2ccc(NC(=O)C3CCCCC3)cc2C1=O`?
Env fusion inh: -25.3[16.7 µM]; UUG fidelity: 30.7

(listing goes on)
What do the screens show for `C[C@@H]1CN([C@H](C)CO)C(=O)c2cc(-c3ccccc3)cnc2O[C@@H]1CN(C)C`?
Env fusion inh: -15.2[16.7 µM]; UUG fidelity: -11.1

What do the screens show for `C[C@@H]1CN([C@H](C)CO)C(=O)c2cc(-c3cccc(F)c3)cnc2O[C@@H]1CN(C)C(=O)C1CCCCC1`?
Env fusion inh: 3.1[16.7 µM]; UUG fidelity: -6.4

What do the screens show for `Cc1ccc(S(=O)(=O)N(C)C[C@@H]2Oc3ccc(NC(=O)Nc4ccc(C(F)(F)F)cc4)cc3CC(=O)N([C@@H](C)CO)C[C@H]2C)cc1`?
Env fusion inh: 24.0[16.7 µM]; UUG fidelity: -2.7

Results for Cc1ccc(S(=O)(=O)Nc2ccc3c(c2)C(=O)N([C@H](C)CO)C[C@H](C)[C@H](CN(C)S(=O)(=O)c2ccccc2)OCCCC[C@H](C)O3)cc1 ?
Env fusion inh: -2.8[16.7 µM]; UUG fidelity: -16.0

Results for C[C@H](CO)N1C[C@H](C)[C@@H](CN(C)C(=O)Nc2ccccc2F)Oc2cc(-c3ccc(C(=O)N(C)C)cc3)ccc2S1(=O)=O ?
Env fusion inh: -16.6[16.7 µM]; UUG fidelity: 14.0

Source: PubChem
